# Compound activity as filed in PubChem BioAssay.
# ID4 binder: binders of human ID4 protein; small molecule microarray, Flag-ID4 binding, fluorescence F/B; P47928; calls only; 1.2% of 31,000 active;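 active = spot signal over background at p below 0.07 in all four prints; compounds were printed on slides so no solution concentration is given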;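 note: a binder raises fluorescence above local background on the spot; about 2 pmol printed per array spot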
# Target sequence (P47928 whole entry, looked up): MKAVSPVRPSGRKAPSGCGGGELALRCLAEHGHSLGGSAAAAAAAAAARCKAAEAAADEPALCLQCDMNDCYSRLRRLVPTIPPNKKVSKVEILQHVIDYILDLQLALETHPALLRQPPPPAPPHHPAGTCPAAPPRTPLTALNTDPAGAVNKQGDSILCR
# Calls only; i = inactive; + = active, no number. An excerpt, so the mix of outcomes need not match the whole.
structure | ID4 binder
C[C@@H]1CN([C@@H](C)CO)C(=O)c2cc(-c3ccccc3F)cnc2O[C@H]1CN(C)C(=O)C1CCC1 | i
CO[C@H](CN(C)C(=O)c1ccc2c(c1)OCO2)[C@@H](C)CN([C@@H](C)CO)S(=O)(=O)c1ccc(C)cc1 | i
Cc1ccc(NC(=O)Cc2n[nH]c(=S)n2C)cc1 | i
CCCCN(CC)C(=O)Cn1c(=O)n(Cc2ccccc2Cl)c(=O)c2cc(OC)c(OC)cc21 | i
C[C@H]1CN([C@@H](C)CO)S(=O)(=O)c2ccc(C#CC3CC3)cc2O[C@H]1CN(C)C(=O)c1ccccc1 | i
Cc1cc(Cl)ccc1NC(=O)CN(C)S(=O)(=O)c1ccc(F)cc1 | i
C[C@@H]1CN([C@@H](C)CO)C(=O)c2cc(C3=CCCC3)cnc2O[C@H]1CN(C)Cc1ccccc1F | i
COc1cc(C)c(Cl)cc1S(=O)(=O)NCCN1CCOCC1 | i
CCCN(C)C[C@@H]1OCc2cnnn2CCCC(=O)N([C@@H](C)CO)C[C@@H]1C | i
Cc1ccc(-c2noc(CN(C(=O)c3cccc([N+](=O)[O-])c3)C(C)C)n2)cc1 | i
C[C@H](CO)N1C[C@H](C)[C@H](CN(C)Cc2cncnc2)Oc2ncc(/C=C/c3ccccc3)cc2C1=O | i
C[C@H]1CN([C@@H](C)CO)C(=O)c2cc(C3=CCCC3)cnc2O[C@H]1CN(C)C(=O)C1CCCCC1 | i
O=C(COc1ccc([N+](=O)[O-])cc1)Nc1ccc2oc(-c3ccc(F)cc3)nc2c1 | i
C/C=C/c1ccc2c(c1)O[C@@H](CN(C)Cc1ccccc1F)[C@@H](C)CN([C@H](C)CO)S2(=O)=O | i
O=C(C[C@H]1CC[C@@H](NS(=O)(=O)c2ccccc2)[C@@H](CO)O1)NCCN1CCCCC1 | i
Nc1nnc(SCC(=O)N2CCN(Cc3ccccc3)CC2)s1 | i
COc1ccc2c(=O)cc(-c3ccccc3OC)oc2c1 | i
COc1cccc(-c2ccc3c(c2)O[C@H](CN(C)C(=O)C2CCCCC2)[C@@H](C)CN([C@H](C)CO)S3(=O)=O)c1 | i
C[C@@H]1CN([C@@H](C)CO)C(=O)c2cc(-c3ccccc3F)cnc2O[C@@H]1CN(C)C(=O)C1CCC1 | i
O=C(O)C[C@@H]1C=C[C@@H](NC(=O)Nc2ccccc2)[C@H](CO)O1 | i

# Quoted at random: 2 records from the list.
structure | ID4 binder
Cc1ccc(-c2noc(CN(C(=O)c3cccc([N+](=O)[O-])c3)C(C)C)n2)cc1 | i
CCCN(C)C[C@@H]1OCc2cnnn2CCCC(=O)N([C@@H](C)CO)C[C@@H]1C | i

# (more compounds)
structure | ID4 binder
O=C(COc1ccc(I)cc1)Nc1ccc([N+](=O)[O-])cc1O | i
C[C@@H]1CN([C@H](C)CO)S(=O)(=O)c2ccc(/C=C/c3ccccc3)cc2O[C@H]1CN(C)C(=O)NC1CCCCC1 | i
Cc1sc2nc(-c3ccccc3O)[nH]c(=O)c2c1C | i
C[C@H](CO)N1C[C@H](C)[C@H](CN(C)C(=O)CN(C)C)Oc2ncc(/C=C/c3ccccc3)cc2C1=O | i
O=C(C[C@H]1CC[C@H](NC(=O)C2CC2)[C@H](CO)O1)NCC1CC1 | i
CCOc1ccccc1-c1nc(SCC(=O)Nc2sc3c(c2C#N)CCCC3)n[nH]1 | i
CCOC(=O)c1c(NC(=O)Cn2nc([N+](=O)[O-])c(Br)c2C)sc2c1CCCC2 | i
C[C@@H]1CN([C@H](C)CO)S(=O)(=O)c2ccc(C#Cc3cccnc3)cc2O[C@@H]1CN(C)C | i
CN1C(C(=O)Nc2ccccn2)C(=O)c2ccccc2S1(=O)=O (stereo not given) | i
COc1ccc(OC)c(NS(=O)(=O)c2ccc(NC(=O)C3COc4ccccc4O3)cc2)c1 (stereo not given) | i
CC(C)CC#Cc1cnc2c(c1)C(=O)N([C@@H](C)CO)C[C@@H](C)[C@@H](CN(C)Cc1ccccn1)O2 | i
C[C@@H]1CN([C@H](C)CO)C(=O)c2cc(-c3cccc(C#N)c3)cnc2O[C@H]1CN(C)Cc1ccc(F)cc1 | i
CC(=O)N(C)C[C@@H]1Oc2ncc(C3=CCCC3)cc2C(=O)N([C@H](C)CO)C[C@@H]1C | i
O=C(C[C@H]1C=C[C@@H](NC(=O)Nc2cc(F)ccc2F)[C@@H](CO)O1)NCCCN1CCOCC1 | i
Cc1cc(NC(=O)CSc2nnc(-c3ccccc3Cl)n2C)ccc1Br | i
O=C(C[C@@H]1C=C[C@H](NC(=O)Nc2cccc(F)c2)[C@H](CO)O1)NCC1CCCCC1 | i
Cc1nc(S(=O)(=O)NC2CCN(Cc3ccc(OCCO)cc3)CC2)cn1C | i
CC(=O)OC[C@]12[C@@H](OC(C)=O)C[C@@H]3[C@@H](OC(=O)c4ccccc4)[C@]1(OC3(C)C)[C@H](C)C[C@H](OC(=O)c1ccccc1)[C@@H]2OC(C)=O | i
COC(=O)CSc1nnc(-c2sc3ccccc3c2Cl)n1-c1ccc(OC)cc1 | i
CS(=O)(=O)N(CC(=O)Nc1ccccc1C(=O)N1CCOCC1)c1cccc(Cl)c1Cl | i

# Five structures from above, sorted by length of the SMILES, highest first.
structure | ID4 binder
C[C@H](CO)N1C[C@H](C)[C@H](CN(C)C(=O)CN(C)C)Oc2ncc(/C=C/c3ccccc3)cc2C1=O | i
O=C(C[C@H]1C=C[C@@H](NC(=O)Nc2cc(F)ccc2F)[C@@H](CO)O1)NCCCN1CCOCC1 | i
O=C(C[C@@H]1C=C[C@H](NC(=O)Nc2cccc(F)c2)[C@H](CO)O1)NCC1CCCCC1 | i
COc1ccc(OC)c(NS(=O)(=O)c2ccc(NC(=O)C3COc4ccccc4O3)cc2)c1 (stereo not given) | i
CS(=O)(=O)N(CC(=O)Nc1ccccc1C(=O)N1CCOCC1)c1cccc(Cl)c1Cl | i

# Carrying on.
structure | ID4 binder
CO[C@H](CN(C)C(=O)C1CCOCC1)[C@@H](C)CN([C@H](C)CO)S(=O)(=O)c1ccccc1 | i
COc1ccc(-c2cc(=O)c3ccccc3o2)cc1 | i
C[C@H](CO)N1C[C@H](C)[C@@H](CN(C)Cc2cccc(C(F)(F)F)c2)OCc2cn(nn2)CCCC1=O | i
C[C@H]1CN([C@@H](C)CO)C(=O)c2cc(-c3ccccc3)cnc2O[C@H]1CN(C)C(=O)Nc1ccccc1 | i
O=C(C[C@@H]1CC[C@H](NC(=O)C2CC2)[C@H](CO)O1)Nc1ccccc1 | i
C[C@H]1CN([C@@H](C)CO)C(=O)Cc2cc(NC(=O)C3CC3)ccc2O[C@H]1CN(C)CC1CCCCC1 | i
CNS(=O)(=O)c1ccc(NC(=O)c2cc(-c3cccnc3)nc3ccc(Br)cc23)cc1 | i
C[C@@H]1O[C@@H](OC[C@H]2OC(Oc3c(-c4ccc(OCCO)c(OCCO)c4)oc4cc(OCCO)cc(O)c4c3=O)[C@H](O)[C@@H](O)[C@@H]2O)[C@H](O)[C@H](O)[C@H]1O (stereo not given in full) | i
O=C(C[C@H]1CC[C@@H](NC(=O)c2cccc(F)c2)[C@@H](CO)O1)NCc1ccccc1 | i
COc1c(O[C@@H]2O[C@H](CO)[C@@H](O)[C@H](O)[C@H]2O)cc2oc(-c3ccc(O)cc3)cc(=O)c2c1O | i
COc1ccccc1OCC(=O)Nc1ccc(C)cc1[N+](=O)[O-] | i
C[C@H](CO)N1C[C@H](C)[C@H](CN(C)C(=O)Cc2cccnc2)Oc2ncc(C#CC3(O)CCCC3)cc2C1=O | i
CCc1ccccc1NC(=O)C(C)n1nc([N+](=O)[O-])c(Br)c1C (stereo not given) | i
Cc1ccc(NC(=O)COc2ccc(Cl)cc2)c([N+](=O)[O-])c1 | i
Cc1occc1-c1nnc(SCC(=O)Nc2ccccc2[N+](=O)[O-])n1-c1ccccc1 | i
C[C@H]1CN([C@@H](C)CO)C(=O)c2cc(C#Cc3ccc(F)cc3)cnc2O[C@H]1CN(C)C | i
CNC[C@H]1Oc2cc(C#Cc3ccccc3F)ccc2S(=O)(=O)N([C@@H](C)CO)C[C@@H]1C | i
O=C(CC1(O)C(=O)Nc2ccc(Br)cc21)c1ccc(NS(=O)(=O)c2ccccc2)cc1 (stereo not given) | i
COC(=O)C[C@H]1C[C@H]2c3cc(NS(=O)(=O)c4ccccc4)ccc3O[C@H]2[C@@H](CO)O1 | i
COc1ccc(S(=O)(=O)NC2(C(=O)O)CCCCC2)cc1 | i
Cc1ccc(-c2noc(CSc3nc(C)cc(C)n3)n2)cc1 | i
COc1c(Cl)cc(C(=O)Nc2sc3c(c2C(=O)NCc2cccnc2)CCCC3)cc1Cl | i
CCCOc1ccc(Oc2nc(Nc3ccc(C)cc3)nc(N3CCOCC3)n2)nn1 | i
Cc1cc2nc3c(=O)[nH]c(=O)nc-3n(CC(O)C(O)C(O)CO)c2cc1C (stereo not given) | i
CCCc1ccc(OCc2ccc(C(=O)NCc3cccnc3)o2)c(OC)c1 | i
C[C@H]1CN([C@@H](C)CO)C(=O)Cc2cc(N(C)C)ccc2O[C@H]1CN(C)Cc1ccc2c(c1)OCO2 | i
C[C@H](NC(=O)C[C@H]1C[C@@H]2c3cc(N(C)C)ccc3O[C@@H]2[C@H](CO)O1)c1ccccc1 | i
Cc1ccccc1CN(C)C[C@@H]1OCc2cnnn2CCCC(=O)N([C@@H](C)CO)C[C@H]1C | i
C[C@H]1CN([C@@H](C)CO)C(=O)c2ccccc2-c2ccccc2CO[C@H]1CN(C)Cc1cccc(O)c1 | i
CN1C(=O)CC[C@H]1c1cccnc1 | i
CCOC(=O)c1cnc(SCC(=O)Nc2ccc(Cl)cc2Cl)nc1N | i
O=C(CCc1ccc(O)cc1)c1c(O)cc(O)cc1O[C@@H]1O[C@H](CO)[C@@H](O)[C@H](O)[C@H]1O | i
COc1cc(-c2coc3cc(OCc4ccccc4)c(OC)c(O)c3c2=O)cc(OCc2ccccc2)c1OC | i
CC(C)Oc1ccccc1-c1nc(SCC(=O)O)n[nH]1 | i
Cn1c2c(c(=O)n(C)c1=O)CN(CC1CC1)CN2 | i
CC(C)CC#Cc1cnc2c(c1)C(=O)N([C@@H](C)CO)C[C@H](C)[C@@H](CN(C)Cc1ccccc1C(=O)O)O2 | i
O=C(C[C@H]1C=C[C@@H](NC(=O)Nc2cccc(F)c2)[C@@H](CO)O1)NCC1CCCCC1 | i
O=c1[nH]c(=O)n(Cc2ccco2)c2c1C(C(F)(F)F)(C(F)(F)F)N=C(C1CCCCC1)N2 | i
C[C@@H]1CN([C@H](C)CO)S(=O)(=O)c2ccc(-c3ccc(C(=O)N(C)C)cc3)cc2O[C@H]1CN(C)Cc1ccccc1C(=O)O | i
Cc1ccc(S(=O)(=O)N(C)CC(=O)Nc2cccc(F)c2)cc1 | i
C/C=C/c1cnc2c(c1)C(=O)N([C@@H](C)CO)C[C@H](C)[C@@H](CN(C)S(=O)(=O)c1cccs1)O2 | i
COc1ccc([Si](C)(C)[C@H]2[C@H](CCO)O[C@@]3(C(=O)N(Cc4ccc(NC(=O)[C@H](C)O)cc4)c4ccccc43)[C@@H]2C)cc1 | i
CCCC#Cc1cnc2c(c1)C(=O)N([C@@H](C)CO)C[C@@H](C)[C@@H](CN(C)C(=O)c1ccc(F)cc1)O2 | i
C[C@H](CO)N1C[C@H](C)[C@H](CN(C)Cc2ccc(-c3ccccc3)cc2)Oc2cc(C#C[C@@H](C)O)ccc2S1(=O)=O | i
C[C@@H]1CN([C@H](C)CO)C(=O)c2cc(C3=CCCCC3)cnc2O[C@H]1CN(C)C(=O)c1ccc(F)cc1 | i
CC/C=C\C/C=C\C/C=C\CCCCCCCCCCCC(=O)O | i
N#CNC(=Nc1ccccc1C(F)(F)F)N1CCCC1 | i
CCc1cccc(C)c1NC(=O)CN(C)S(=O)(=O)c1ccc(Br)cc1 | i
O=C(N[C@@H]1CC[C@H](CC(=O)N2CCc3ccccc3C2)O[C@@H]1CO)C1CCC1 | i
Cc1cc(C)c(C#N)c(SCCS(=O)(=O)c2nc3ccccc3s2)n1 | i
Cc1ccc(-c2cnc3c(c2)C(=O)N([C@@H](C)CO)C[C@H](C)[C@@H](CN(C)C)O3)cc1 | i
CCCN(C)C[C@@H]1Oc2cc(Br)ccc2S(=O)(=O)N([C@@H](C)CO)C[C@@H]1C | i
CCOc1ccc2nc(SCC(=O)Nc3ccc(C)cc3C)[nH]c2c1 | i
COc1ccc(C)cc1NC(=O)CSc1nc2ccccc2s1 | i
O=C(CC1NCCNC1=O)Nc1ccc(Cl)cc1 (stereo not given) | i
C[C@@H]1CN([C@H](C)CO)S(=O)(=O)c2ccc(C3=CCCC3)cc2O[C@H]1CN(C)C | i
COc1ccc(NC(=O)Cn2nc(C)c([N+](=O)[O-])c2C)c(OC)c1 | i
O=C(Nc1ccc(S(=O)(=O)Nc2nccs2)cc1)C1c2ccccc2Oc2ccccc21 | i
Cc1cc(N(CC(=O)Nc2ccc(F)c(F)c2)S(C)(=O)=O)ccc1Br | i
C[C@]12CC[C@H](O)CC1=CCC1C2CC[C@@]2(C)C1CC[C@@H]2C(=O)CO (stereo not given in full) | i

# (more compounds)
structure | ID4 binder
Cc1ccc(S(=O)(=O)Nc2c(C)[nH]c(=O)[nH]c2=O)cc1C | +
Cc1cc(C)c(C#N)c(SCC(=O)Nc2cc(C(F)(F)F)ccc2Cl)n1 | i
CS(=O)(=O)N(CC(=O)Nc1ccc(F)c(F)c1)c1ccc(Br)cc1 | i
COc1ccccc1S(=O)(=O)N(C)C[C@@H]1Oc2cc(/C=C/c3ccccc3)ccc2S(=O)(=O)N([C@H](C)CO)C[C@@H]1C | i
N#Cc1sc2nc3ccccc3n2c1/N=C/N1CCOCC1 | i
C/C=C/c1ccc2c(c1)O[C@H](CN(C)CC1CC1)[C@H](C)CN([C@@H](C)CO)S2(=O)=O | i
C[C@H]1CN([C@@H](C)CO)C(=O)c2cc(Br)cnc2O[C@@H]1CN(C)C(=O)c1ccc(F)cc1 | i
Cc1ccc(NC(=O)COc2ccc(Cl)cc2Br)c([N+](=O)[O-])c1 | i
CO[C@H](CN(C)C(=O)Nc1ccc(C(F)(F)F)cc1)[C@@H](C)CN(Cc1ccccc1Cl)[C@@H](C)CO | i
